NPYLR7 agonist: mosquito NPYLR7 agonism | activation, % at 10 µM | HEK293T NPYLR7/Galpha15, GCaMP6s calcium fluorescence | 270,000 tested, 0.15% active; in the data active means activation above about 40%;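 further: 0% = vehicle and 100% = reference agonist at the receptor; some compounds past the cut are filed as inactive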
NPYLR7 agonist max-min: recorded beside NPYLR7 agonist, whose call it bears; activation, %; measured here: Max-Min RFU normalised activation; some inactives read as strong as hits;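 span of the calcium signal over five minutes; 0% = vehicle and 100% = native peptide agonist; compound fluorescence can raise it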
An asterisk follows results filed as active. An excerpt; the hit share may differ from the screen's.

SMILES	NPYLR7 agonist	NPYLR7 agonist max-min
CCN(CC)c1ccc(/C=C/c2[nH]c(=O)[nH]c(=O)c2[N+](=O)[O-])c(OC)c1	-1	14
N#C/C(=C\c1ccc(O)c(O)c1)C(=O)OCCc1cccs1	12	5
Cc1c(Cl)c(CSc2n[nH]c(N)n2)nc2ccccc12	-1	-1
CCc1cccc(N2C(=O)CSC2c2cccc(NC(=O)c3cccc([N+](=O)[O-])c3)c2)c1 (stereo not drawn)	-6	-1
CC1NC(=S)N(c2ccccc2COc2ccccc2)C1=O (stereo not drawn)	0	402
COc1ccc(OC)c(C(=O)NCc2cn[nH]n2)c1	-2	-3
CCOC(=O)c1sc2ncn(N=CN(C)C)c(=O)c2c1C	8	7
CN(C)CCCNCc1cccs1	12	11
Cc1cccnc1NC(=O)NC1CCN(C2CC2)C1 (stereo not drawn)	0	-3
CC(CNC(=O)c1ncc[nH]1)Oc1cccnc1 (stereo not drawn)	21	16
Cc1c(C(=O)NCCCn2ccnc2)sc2nc3n(c(=O)c12)CCCCC3	1	2
O=C(NC1CCCOC1)c1cn[nH]c1-c1cccc(OC(F)F)c1 (stereo not drawn)	14	10
O=[N+]([O-])c1cc(S(=O)(=O)C(F)(F)F)ccc1NCC1CCCO1 (stereo not drawn)	2	5
CC1=NN(c2cccc(C(=O)O)c2)C(=O)/C1=C\c1cccc([N+](=O)[O-])c1	-2	-6
Cc1ncc([N+](=O)[O-])n1S(=O)(=O)c1ccc(Cl)cc1	5	5
CC1=C/C(=N/OC(=O)c2ccccc2Br)CC(C)(C)C1	2	3
Cc1ccc2c(n1)OC(C)(C)CN(CC(C)C)C2=O	7	19
COc1ncc(-c2c(-c3ccccc3)ncn2CCN2CCCCC2)cn1	3	3
Cc1ccc(Br)cc1NC(=O)N1CC2CN3CCCCC3C2C1 (stereo not drawn)	1	1
CC1(C(=O)Nc2ccccc2)CCN1C(=O)CC1CC1 (stereo not drawn)	1	3
COc1ccc(Cl)cc1CC1(C)C(=O)Nc2cc(-c3ccc(F)cc3F)ccc21 (stereo not drawn)	4	2
Cc1ccccc1C1c2ccsc2CCN1CCC(=O)N1CCN(C(=O)c2ccc([N+](=O)[O-])cc2)CC1 (stereo not drawn)	7	1
Cc1cc(C)cc(CC(=O)N2CCC2(C)C(=O)NS(=O)(=O)c2ccccc2C)c1 (stereo not drawn)	4	1
CC(=O)Cn1c(Br)nc2c1c(=O)n(Cc1cccc(C)c1)c(=O)n2C	1	-1
O=C(c1cnnn1-c1ccccc1)N1CCCC(OCc2ccccn2)C1 (stereo not drawn)	17	8
CC1(C)CC(=O)C2=C(C1)OC(=N)C(C#N)C2c1ccoc1 (stereo not drawn)	8	6
CC(C(=O)NCc1cc(-c2ccco2)on1)n1cnc2ccccc21 (stereo not drawn)	-3	-7
O=C(NC1CCCN(c2ccccc2)C1=O)c1cc(=O)c2ccccc2o1 (stereo not drawn)	2	1
O=C(c1cccc(-c2cccc(F)c2)c1)N1CCC(CO)(Cc2ccccc2)CC1	2	-6
CCc1nc2ccc(C(=O)N3CCN(C(C)=O)CC3)cn2c1N(CC)CCOC	-5	-6
COc1cccc(CN(C)C(C)c2ccncc2)c1O (stereo not drawn)	27	15
CCCCC1CCCC1NC(=O)C(C)OCC (stereo not drawn)	7	6
O=C(CCc1nnc(Cc2ccc3c(c2)OCO3)o1)N1CCc2ccccc2C1	21	11
O=C1CSC(c2ccc([N+](=O)[O-])cc2)N1c1ccc(Br)cn1 (stereo not drawn)	-7	-8
NS(=O)(=O)c1ccc(CCN2C(=O)c3cccc4cccc(c34)C2=O)cc1	-4	-11
Cc1ccc(-n2c(C)nn(CN3CCN(c4ccccc4F)CC3)c2=S)cc1	-6	-9
CCNc1cc2c(nn1)CCN(C(=O)Cn1ccc(=O)n(C)c1=O)C2	-1	-4
CC1CCN(S(=O)(=O)N2CCCC(C(=O)NC3CC3)C2)CC1 (stereo not drawn)	1	-1
N#CC1(c2ccccc2)CCN(C(=O)C2CC=CCC2C(=O)N2CCC(O)(Cc3ccccc3)CC2)CC1 (stereo not drawn)	-2	-9
O=C(NC1CC1)[C@@]1(OCc2ccccc2)CC(OCc2cccc(F)c2F)[C@H](O)[C@H](O)C1 (stereo partly drawn)	4	10

Taken from above:
Under NPYLR7 agonist max-min, Cc1ccc(-n2c(C)nn(CN3CCN(c4ccccc4F)CC3)c2=S)cc1 has the entry -9
Under NPYLR7 agonist, O=C(NC1CC1)[C@@]1(OCc2ccccc2)CC(OCc2cccc(F)c2F)[C@H](O)[C@H](O)C1 (stereo partly drawn) has the entry 4
Under NPYLR7 agonist, CC1CCN(S(=O)(=O)N2CCCC(C(=O)NC3CC3)C2)CC1 (stereo not drawn) has the entry 1
Under NPYLR7 agonist, O=C(c1cnnn1-c1ccccc1)N1CCCC(OCc2ccccn2)C1 (stereo not drawn) has the entry 17

The list continues.
SMILES	NPYLR7 agonist	NPYLR7 agonist max-min
CCOC(=O)c1[nH]c2ccccc2c1NC(=O)c1cc(OCC)c(OCC)c(OCC)c1	1	11
CSc1ccc(C(=O)N2CC(=O)N(Cc3cccs3)CC(O)C2)cc1 (stereo not drawn)	25	33
CCCC(=O)NCCOc1ccc2nnc(-c3ccc(OC)c(OC)c3)n2n1	-9	-11
CC(=O)c1ccc(NC(=O)Cn2cnc3nc(N4CCOCC4)ncc3c2=O)cc1	-11	-15
O=C(C[N+]1=C(c2ccccc2)c2cccn2CC1)c1ccccc1	9	7
COc1ccccc1C1CCN(Cc2csc(Cc3ccc(F)cc3Cl)n2)CC1	21	29
O=C(c1ccc(CSc2ncccn2)o1)N1CCCC1C(F)(F)F (stereo not drawn)	1	1
O=c1oc2ccccc2cc1-c1csc(N/N=C\c2ccccc2)n1	-2	-9
CCCn1c(=O)n(CC(=O)Nc2ncccn2)c2ccccc21	10	11
CCCCN(C)c1c(C)nc2ccc(C(=O)Nc3ccc(OC)c(OC)c3)cn12	-5	-11
CCCCc1ccc(C(=O)N(CCCOC)CC(=O)N(CCc2ccc(OC)c(OC)c2)Cc2ccco2)cc1	-12	-10
CCc1cc(N2CCN(C/C=C/c3ccccc3)CC2)nc(SCc2ccc(C(=O)NCc3ccncc3)o2)n1	-8	-10
Cn1cc(C2NC(=O)CC[C@@H]2NC(=O)c2ccc(I)cc2)cn1 (stereo partly drawn)	2	2
CN(CC(=O)Nc1ccccc1Br)C1CCc2ccccc21 (stereo not drawn)	12	7
OC(CCc1ccccc1)C1CCN(Cc2nc(Cc3ccccc3F)no2)CC1 (stereo not drawn)	-1	-5
Cc1nc(Nc2ccc(NC(=O)Nc3cccc(F)c3)cc2)cc(-n2cccn2)n1	-8	-12
COCCCn1c(C)cn2c3c(=O)n(Cc4ccccc4F)c(=O)n(C)c3nc12	-3	-6
Cc1ccc2nc(C)c(NC(=O)c3ccc(Br)cc3)c(=O)n2c1	-2	-3
CC1CCCCC12NC(=O)N(CC(=O)c1ccc3ccccc3c1)C2=O (stereo not drawn)	4	0
COc1cc(C=NNc2ncnc3scc(-c4ccccc4)c23)ccc1O	-1	2

Shown with values under each structure: 22 of the compounds above
Second line of a record: NPYLR7 agonist	NPYLR7 agonist max-min
CCN(CC)c1ccc(/C=C/c2[nH]c(=O)[nH]c(=O)c2[N+](=O)[O-])c(OC)c1
→ -1	14
N#C/C(=C\c1ccc(O)c(O)c1)C(=O)OCCc1cccs1
→ 12	5
Cc1c(Cl)c(CSc2n[nH]c(N)n2)nc2ccccc12
→ -1	-1
CCc1cccc(N2C(=O)CSC2c2cccc(NC(=O)c3cccc([N+](=O)[O-])c3)c2)c1 (stereo not drawn)
→ -6	-1
CC1NC(=S)N(c2ccccc2COc2ccccc2)C1=O (stereo not drawn)
→ 0	402
COc1ccc(OC)c(C(=O)NCc2cn[nH]n2)c1
→ -2	-3
CCOC(=O)c1sc2ncn(N=CN(C)C)c(=O)c2c1C
→ 8	7
CN(C)CCCNCc1cccs1
→ 12	11
Cc1cccnc1NC(=O)NC1CCN(C2CC2)C1 (stereo not drawn)
→ 0	-3
CC(CNC(=O)c1ncc[nH]1)Oc1cccnc1 (stereo not drawn)
→ 21	16
Cc1c(C(=O)NCCCn2ccnc2)sc2nc3n(c(=O)c12)CCCCC3
→ 1	2
O=C(NC1CCCOC1)c1cn[nH]c1-c1cccc(OC(F)F)c1 (stereo not drawn)
→ 14	10
O=[N+]([O-])c1cc(S(=O)(=O)C(F)(F)F)ccc1NCC1CCCO1 (stereo not drawn)
→ 2	5
CC1=NN(c2cccc(C(=O)O)c2)C(=O)/C1=C\c1cccc([N+](=O)[O-])c1
→ -2	-6
Cc1ncc([N+](=O)[O-])n1S(=O)(=O)c1ccc(Cl)cc1
→ 5	5
CC1=C/C(=N/OC(=O)c2ccccc2Br)CC(C)(C)C1
→ 2	3
Cc1ccc2c(n1)OC(C)(C)CN(CC(C)C)C2=O
→ 7	19
COc1ncc(-c2c(-c3ccccc3)ncn2CCN2CCCCC2)cn1
→ 3	3
Cc1ccc(Br)cc1NC(=O)N1CC2CN3CCCCC3C2C1 (stereo not drawn)
→ 1	1
CC1(C(=O)Nc2ccccc2)CCN1C(=O)CC1CC1 (stereo not drawn)
→ 1	3
COc1ccc(Cl)cc1CC1(C)C(=O)Nc2cc(-c3ccc(F)cc3F)ccc21 (stereo not drawn)
→ 4	2
Cc1ccccc1C1c2ccsc2CCN1CCC(=O)N1CCN(C(=O)c2ccc([N+](=O)[O-])cc2)CC1 (stereo not drawn)
→ 7	1

3 structures already listed, arranged by SMILES length, lowest first:
SMILES	NPYLR7 agonist	NPYLR7 agonist max-min
Cn1cc(C2NC(=O)CC[C@@H]2NC(=O)c2ccc(I)cc2)cn1 (stereo partly drawn)	2	2
Cc1nc(Nc2ccc(NC(=O)Nc3cccc(F)c3)cc2)cc(-n2cccn2)n1	-8	-12
CCCCc1ccc(C(=O)N(CCCOC)CC(=O)N(CCc2ccc(OC)c(OC)c2)Cc2ccco2)cc1	-12	-10

Additional results
SMILES	NPYLR7 agonist	NPYLR7 agonist max-min
Cc1ccnc2nc(C(=O)NC(c3ccccc3)C(C)C)nn12 (stereo not drawn)	9	13
O=C(Nc1ccc(SCC(=O)N2CCOCC2)nn1)C1CC1	0	-2
COc1ccc2nc(-c3ccc(NC(=O)Nc4ccccc4)cc3)cn2n1	0	-1
Cc1ccc(F)cc1N1C(=O)C2C3C=CC(C3)C2C1=O (stereo not drawn)	-8	-13

High-throughput results as filed in PubChem BioAssay.
